Screening data as filed in PubChem BioAssay.
Yeast UUG start: yeast start codon fidelity modulation; activity score, % at 18.7 µM; S. cerevisiae UUG-firefly luciferase reporter, luminescence/redox ratio; 350,000 compounds, 0.13% hits;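 active = replicate mean at a twofold rise or more, about +100% in these data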;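 also: firefly luciferase made from a UUG start codon reports start codon fidelity; reporter light over untreated wells divided by growth signal over untreated wells; some hits fall short of that in this replicate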
Active calls of the source: *. Some of the compounds tested; rates above refer to the full screens.

SMILES | Yeast UUG start
COc1cccc(S(=O)(=O)N2CC[C@@H]3[C@H]2c2cc(C4=CCCCC4)ccc2N(C)[C@H]3CO)c1 | -2
O=C(Nc1cc(F)ccc1F)N1CCCCN2[C@H](CO)[C@H](c3ccc(-c4ccncc4)cc3)[C@@H]2C1 | -9
CCC(=O)N1CC[C@@H]2[C@H]1c1cc(C#Cc3cccc(F)c3)ccc1N(C)[C@H]2CO | -9
COCC(=O)N1C[C@@H]2[C@H](c3ccccc31)[C@@H](CO)N2Cc1cc(F)ccc1F | -16
CC(C)C#Cc1ccc([C@@H]2[C@H](CO)N3CCCCN(C(=O)NC(C)C)C[C@@H]23)cc1 | 15
CCCNC(=O)N1C[C@H]2[C@@H](c3ccccc31)[C@@H](CO)N2C(=O)Nc1ccc(F)cc1 | 9
CO[C@@H]1CN(C)C(=O)c2ccc(NC(=O)C3CCCC3)cc2OC[C@H](C)N(C)C[C@H]1C | 0
C[C@H](CO)N1C[C@H](C)[C@H](CN(C)S(=O)(=O)c2cn(C)cn2)Oc2ccc(NC(=O)C3CC3)cc2C1=O | -2
CN1CCN(C(=O)C[C@H]2CC[C@@H]3[C@H](COC[C@H](O)CN3C(=O)c3ccc(F)cc3)O2)CC1 | -3
COCC(=O)N1CCCCN2[C@@H](CO)[C@H](c3ccc(C#Cc4ccccc4)cc3)[C@@H]2C1 | 1
O=C(C1CC1)N1C[C@@H]2[C@H](c3ccccc31)[C@@H](CO)N2C(=O)c1ccccc1 | 4
CC=Cc1ccc2n(c1=O)C[C@@H]1[C@@H](CO)[C@H](C(=O)NCC3CCCCC3)N(C(C)=O)[C@H]21 (mixture of isomers) | 18
CC(C)NC(=O)Nc1ccc2c(c1)CC(=O)N([C@H](C)CO)C[C@@H](C)[C@H](CN(C)Cc1ccc(Oc3ccccc3)cc1)O2 | 1
COCC(=O)Nc1ccc2c(c1)OC[C@H](C)N(Cc1ccccc1OC)C[C@H](C)[C@H](OC)CN(C)C2=O | 5
CCC(=O)N1CCCCN2[C@H](CO)[C@@H](c3ccc(C#CCOC)cc3)[C@H]2C1 | -2
CCCNC(=O)Nc1ccc2c(c1)OC[C@@H](C)N(Cc1ccncc1)C[C@@H](C)[C@H](OC)CN(C)C2=O | 0
CO[C@@H]1CN(C)C(=O)c2ccc(NS(=O)(=O)c3cccc(F)c3)cc2OC[C@H](C)N(C(=O)Cc2cccnc2)C[C@@H]1C | -3
COc1ccc(S(=O)(=O)N(C)C[C@@H]2Oc3ccc(NC(=O)Cc4cn(C)c5ccccc45)cc3C(=O)N([C@H](C)CO)C[C@@H]2C)cc1 | -11
OC[C@@H]1[C@H](c2ccc(-c3ccccc3F)cc2)[C@H]2CN(Cc3cccnc3)CCCCN12 | -17
COc1ccccc1S(=O)(=O)N1C[C@@H](O)COC[C@@H]2O[C@@H](CC(=O)O)CC[C@H]21 | -8

Seven compounds drawn at random from the list so far, as already listed:
SMILES | Yeast UUG start
OC[C@@H]1[C@H](c2ccc(-c3ccccc3F)cc2)[C@H]2CN(Cc3cccnc3)CCCCN12 | -17
CC(C)NC(=O)Nc1ccc2c(c1)CC(=O)N([C@H](C)CO)C[C@@H](C)[C@H](CN(C)Cc1ccc(Oc3ccccc3)cc1)O2 | 1
COc1ccccc1S(=O)(=O)N1C[C@@H](O)COC[C@@H]2O[C@@H](CC(=O)O)CC[C@H]21 | -8
CC=Cc1ccc2n(c1=O)C[C@@H]1[C@@H](CO)[C@H](C(=O)NCC3CCCCC3)N(C(C)=O)[C@H]21 (mixture of isomers) | 18
COCC(=O)Nc1ccc2c(c1)OC[C@H](C)N(Cc1ccccc1OC)C[C@H](C)[C@H](OC)CN(C)C2=O | 5
CCC(=O)N1CCCCN2[C@H](CO)[C@@H](c3ccc(C#CCOC)cc3)[C@H]2C1 | -2
O=C(C1CC1)N1C[C@@H]2[C@H](c3ccccc31)[C@@H](CO)N2C(=O)c1ccccc1 | 4

The list continues:
SMILES | Yeast UUG start
CC(=O)N1[C@@H](CO)[C@@H]2c3ccccc3N(C(=O)c3ccc(F)cc3)C[C@@H]21 | -6
CCN1[C@H](C(=O)NC2Cc3ccccc3C2)[C@@H](CO)[C@@H]2Cn3c(ccc(C4=CCCCC4)c3=O)[C@@H]21 | 19
C[C@H](NC(=O)[C@@H]1[C@@H](CO)[C@@H]2Cn3c(cccc3=O)[C@H]1N2C(=O)C1CCCC1)c1ccccc1 | -4
CC(C)NC(=O)N1C[C@@H]2[C@H](c3ccccc31)[C@H](CO)N2C(=O)c1ccc(F)cc1 | 0
C[C@H](CO)N1C[C@H](C)[C@@H](CN(C)Cc2ccc(-c3ccccc3)cc2)Oc2ccc(NS(=O)(=O)c3cn(C)cn3)cc2C1=O | -4
O=C(NC1CCCC1)N1CCCCN2[C@H](C1)[C@H](c1ccc(-c3ccccc3)cc1)[C@@H]2CO | -8
O=C(Nc1cc(F)ccc1F)N1CCCCN2[C@H](CO)[C@@H](c3ccc(-c4cccnc4)cc3)[C@H]2C1 | -21
C[C@@H]1CN([C@H](C)CO)C(=O)c2cc(NC(=O)Cc3cn(C)c4ccccc34)ccc2O[C@H]1CN(C)S(=O)(=O)c1cn(C)cn1 | 4
COCC(=O)Nc1ccc2c(c1)C(=O)N(C)C[C@H](OC)[C@@H](C)CN(C(=O)Cc1ccccn1)[C@@H](C)CO2 | -3
CO[C@@H]1CN(C)C(=O)c2cc(NC(=O)C3CCCC3)ccc2OC[C@@H](C)N(C)C[C@H]1C | -3
CC(C)NC(=O)Nc1ccc2c(c1)CC(=O)N([C@@H](C)CO)C[C@@H](C)[C@H](CN(C)C(=O)Nc1ccc(C(F)(F)F)cc1)O2 | -1
CCCC(=O)N1C[C@@H]2[C@H](c3ccccc31)[C@H](CO)N2C(=O)CC1CC1 | -2
C[C@H]1CN([C@@H](C)CO)C(=O)Cc2cc(NC(=O)CCC(F)(F)F)ccc2O[C@H]1CN(C)Cc1ccc(C(=O)O)cc1 | -21
C/C=C/c1ccc([C@@H]2[C@@H](CN(CC)C(=O)CN(C)C)N(C(C)=O)[C@H]2CO)cc1 | 2
CCCC(=O)Nc1ccc2c(c1)C(=O)N(C)C[C@H](OC)[C@H](C)CN(Cc1ccccc1F)[C@H](C)CO2 | -2
Cc1noc(C)c1NC(=O)N(C)C[C@@H]1Oc2c(NS(=O)(=O)c3cn(C)cn3)cccc2C(=O)N([C@H](C)CO)C[C@@H]1C | 2
CO[C@@H]1CN(C)C(=O)c2cc(NC(=O)C3CCC3)ccc2OC[C@H](C)N(Cc2cccnc2)C[C@H]1C | -10
C[C@@H]1CN([C@H](C)CO)C(=O)c2cc(N(C)C)ccc2O[C@@H]1CN(C)C(=O)Nc1ccccc1 | -1
CO[C@@H]1CN(C)C(=O)c2ccc(NC(=O)C3CC3)cc2OC[C@@H](C)N(Cc2nccs2)C[C@@H]1C | -10
COCC(=O)Nc1ccc2c(c1)C(=O)N(C)C[C@H](OC)[C@H](C)CN(C(=O)c1cccnc1)[C@@H](C)CO2 | -10
COc1ccc(NC(=O)N(C)C[C@@H]2Oc3c(NC(=O)Nc4c(C)noc4C)cccc3C(=O)N([C@H](C)CO)C[C@@H]2C)cc1 | -2
Cc1ccc(S(=O)(=O)Nc2ccc3c(c2)CC(=O)N([C@@H](C)CO)C[C@H](C)[C@H](CN(C)Cc2ccccc2)O3)cc1 | -5
COc1ccc(C#Cc2ccc3c(c2)[C@@H]2[C@@H](CCN2C(=O)CN2CCOCC2)[C@H](CO)N3C)cc1 | 26
O=C(Nc1ccc(F)cc1)N1CCCCN2[C@H](C1)[C@@H](c1ccc(C#Cc3ccccc3)cc1)[C@@H]2CO | 1
CO[C@H]1CN(C)C(=O)c2cc(NS(=O)(=O)c3ccccc3)ccc2OC[C@H](C)N(Cc2cccnc2)C[C@H]1C | 5
CN(C)C(=O)C[C@@H]1C[C@@H]2c3cc(NC(=O)Nc4ccc(C(F)(F)F)cc4)ccc3O[C@@H]2[C@H](CO)O1 | 1
CS(=O)(=O)N1CCCCN2[C@@H](CO)[C@H](c3ccc(C#Cc4ccccn4)cc3)[C@@H]2C1 | -13
COCC(=O)Nc1ccc2c(c1)[C@@H]1C[C@@H](CC(=O)NCc3ccccc3OC)O[C@@H](CO)[C@@H]1O2 | -2
CCNC(=O)C[C@H]1CC[C@@H]2[C@H](COC[C@@H](O)CN2C(=O)Nc2ccc3c(c2)OCO3)O1 | 1
COc1ccc(-c2ccc3n(c2=O)C[C@H]2[C@H](CO)[C@@H](C(=O)N(C)C)N(CC4CC4)[C@@H]32)cc1 | 40
O=C(Nc1cccc(Cl)c1)N1C[C@H]2[C@@H](c3ccccc31)[C@@H](CO)N2Cc1cccnc1 | -4
O=C(C1CCOCC1)N1CC[C@@H]2[C@H](CO)Nc3ccc(-c4ccc(F)cc4)cc3[C@@H]21 | -10
COc1ccccc1CN1[C@@H]2c3ccc(C4=CCCCC4)c(=O)n3C[C@H]1[C@H](CO)[C@H]2C(=O)N(C)C | 8
COCC(=O)Nc1ccc2c(c1)OC[C@@H](C)N(C(=O)c1cnccn1)C[C@H](C)[C@@H](OC)CN(C)C2=O | -10
O=S(=O)(Cc1ccccc1)N1CCCCN2[C@@H](CO)[C@@H](c3ccc(-c4cncnc4)cc3)[C@@H]2C1 | 3
COc1ccc(NC(=O)Nc2cccc3c2O[C@H](CN(C)Cc2ccncc2)[C@@H](C)CN([C@@H](C)CO)C3=O)cc1 | -7
CC=Cc1ccc2n(c1=O)C[C@@H]1[C@@H](CO)[C@H](C(=O)NCC)N(Cc3cccc(F)c3)[C@H]21 (mixture of isomers) | 9
O=C(C[C@@H]1C[C@@H]2c3cc(NS(=O)(=O)c4ccccc4)ccc3O[C@@H]2[C@H](CO)O1)NC1CCCC1 | 2
CC(C)C#Cc1ccc([C@@H]2[C@H]3CN(S(=O)(=O)Cc4ccccc4)CCCCN3[C@H]2CO)cc1 | -11
C[C@@H]1CN([C@H](C)CO)C(=O)Cc2cc(NS(=O)(=O)c3ccccc3)ccc2O[C@@H]1CN(C)Cc1ccc(C(F)(F)F)cc1 | 6

An excerpt from above in order of formula weight, rising.
SMILES | Yeast UUG start
CC=Cc1ccc2n(c1=O)C[C@@H]1[C@@H](CO)[C@H](C(=O)NCC)N(Cc3cccc(F)c3)[C@H]21 (mixture of isomers) | 9
O=C(C[C@@H]1C[C@@H]2c3cc(NS(=O)(=O)c4ccccc4)ccc3O[C@@H]2[C@H](CO)O1)NC1CCCC1 | 2
COCC(=O)Nc1ccc2c(c1)OC[C@@H](C)N(C(=O)c1cnccn1)C[C@H](C)[C@@H](OC)CN(C)C2=O | -10

New compounds follow:
SMILES | Yeast UUG start
COCC(=O)N1C[C@H](C)[C@@H](OC)CN(C)C(=O)c2ccc(NC(=O)NC(C)C)cc2OC[C@H]1C | 3
COCC(=O)Nc1ccc2c(c1)C(=O)N(C)C[C@H](OC)[C@H](C)CN(Cc1cccnc1)[C@H](C)CO2 | -7
Cc1cccc(S(=O)(=O)N2CC[C@H]3[C@H](CO)Nc4ccc(C#Cc5ccc(F)cc5)cc4[C@H]32)c1 | -6
CN(C)CC(=O)N1[C@@H]2c3ccc(-c4ccc(F)cc4)c(=O)n3C[C@@H]2[C@@H](CO)[C@@H]1C(=O)NC1CCC1 | -6
C[C@H]1CN([C@@H](C)CO)C(=O)Cc2cc(NC(=O)NC3CCCCC3)ccc2O[C@H]1CN(C)C(=O)Nc1ccc(F)cc1 | 13
COc1ccc(S(=O)(=O)Nc2ccc3c(c2)C(=O)N([C@@H](C)CO)C[C@H](C)[C@H](CN(C)S(=O)(=O)c2c(C)noc2C)O3)cc1 | 12
C[C@H](CO)N1C[C@H](C)[C@H](CN(C)Cc2ccc(-c3ccccc3)cc2)Oc2ccc(NC(=O)CCCN(C)C)cc2CC1=O | -2
O=C(NC[C@@H]1[C@@H](c2ccccc2)[C@@H](CO)N1C(=O)Cc1cccnc1)C1CC1 | 9
C[C@H]1CN([C@@H](C)CO)C(=O)c2cc(NS(=O)(=O)c3ccc(Cl)cc3)ccc2O[C@@H]1CN(C)Cc1ccc(C(=O)Nc2ccccc2N)cc1 | 5
CS(=O)(=O)Nc1ccc2c(c1)[C@@H]1C[C@@H](CC(=O)N3CCOCC3)O[C@@H](CO)[C@@H]1O2 | 6
Cc1ccc(S(=O)(=O)Nc2ccc3c(c2)CC(=O)N([C@@H](C)CO)C[C@@H](C)[C@H](CN(C)Cc2ccccc2)O3)cc1 | -2
COCCNC(=O)C[C@H]1CC[C@H]2[C@@H](COc3ccc(NC(=O)c4cnccn4)cc3C(=O)N2C)O1 | 21
O=C(C[C@H]1CC[C@H]2[C@@H](COC[C@@H](O)CN2S(=O)(=O)c2ccccc2F)O1)NCc1ccccc1Cl | 29
COCC(=O)Nc1ccc2c(c1)[C@@H]1C[C@@H](CC(=O)OC)O[C@@H](CO)[C@@H]1O2 | -9
COc1ccc(CN(C)C[C@@H]2Oc3ccc(NS(=O)(=O)c4ccc(C)cc4)cc3C(=O)N([C@@H](C)CO)C[C@@H]2C)cc1 | 1
CN1CCN(C(=O)C[C@@H]2CC[C@@H]3[C@H](COC[C@H](O)CN3S(=O)(=O)c3cccc(Cl)c3)O2)CC1 | -9
COCC#Cc1ccc([C@H]2[C@@H](CO)N3CCCCN(Cc4cncnc4)C[C@@H]23)cc1 | -10
O=C(C[C@@H]1C[C@H]2c3cc(NS(=O)(=O)c4ccc(F)cc4)ccc3O[C@H]2[C@@H](CO)O1)NCc1ccncc1 | -30
CN1C(=O)c2cc(NC(=O)c3cccc(F)c3)ccc2OC[C@@H]2O[C@H](CC(=O)Nc3ccccc3)CC[C@@H]21 | -4
O=C(C[C@@H]1CC[C@H]2[C@@H](COC[C@@H](O)CN2C(=O)c2ccccc2F)O1)N1CCCCC1 | -12
CCC(=O)Nc1ccc2c(c1)C(=O)N(C)C[C@H](OC)[C@@H](C)CN(C(=O)c1ccccn1)[C@@H](C)CO2 | -9
CN(C)CC#Cc1ccc([C@@H]2[C@H]3CN(C(=O)Nc4cc(F)ccc4F)CCCCN3[C@H]2CO)cc1 | -7
C[C@H]1CN([C@@H](C)CO)C(=O)c2cccc(NC(=O)c3ccncc3)c2O[C@H]1CN(C)S(=O)(=O)c1cccs1 | -7
C[C@@H]1CN([C@H](C)CO)C(=O)c2c(c3ccccc3n2C)-c2ccccc2CO[C@@H]1CN(C)S(=O)(=O)c1ccc(C#N)cc1 | -2
